# Screening results from PubChem BioAssay.
# VDR inh: Inhibitors of the vitamin D receptor (VDR): qHTS. actives 0.93% (n = 400,000). Vitamin D3 receptor (Homo sapiens), P11473. VDR-SRC2-3 peptide fluorescence polarization, 2 h. Potency, µM, inactives show max response, negative = inhibition, actives largely listed as inhibitors; active = well fitted inhibition curve with a large enough effect; inconclusive = small, poorly fitted or top-dose-only effect, or another doubt; inactive = no such curve, though single readings can be large or run the other way; also: series mostly up to about 120 µM
# Target sequence (P11473 whole entry, looked up): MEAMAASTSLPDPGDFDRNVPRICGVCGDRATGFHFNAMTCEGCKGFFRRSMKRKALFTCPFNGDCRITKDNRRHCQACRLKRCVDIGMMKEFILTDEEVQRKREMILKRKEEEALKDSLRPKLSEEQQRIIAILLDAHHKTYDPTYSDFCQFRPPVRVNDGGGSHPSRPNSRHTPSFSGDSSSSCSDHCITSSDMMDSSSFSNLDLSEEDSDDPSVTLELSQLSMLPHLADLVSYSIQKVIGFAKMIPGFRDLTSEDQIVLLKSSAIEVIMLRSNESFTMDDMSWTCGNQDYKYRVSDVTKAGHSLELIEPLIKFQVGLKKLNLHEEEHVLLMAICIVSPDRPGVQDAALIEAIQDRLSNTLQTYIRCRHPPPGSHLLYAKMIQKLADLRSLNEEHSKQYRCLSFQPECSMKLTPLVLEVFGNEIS
#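 After 23 nl compound addition and a short centrifugation, plates sat for 2 hours at ambient temperature; polarization of fluorescence then indicated loss of VDR binding to peptide SRC2-3.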
# Active calls of the source: *; ? = inconclusive; & = joins results of further samples. % is scaled to controls: 0 for no effect and ±100 for the full control effect; potency is read from the fitted curve at half-maximal effect. This is a subset (hit frequency here may not be typical).
SMILES,VDR inh
Cc1ccc(S(=O)(=O)NCCCNS(=O)(=O)c2ccccc2)cc1,-20.3%
CCCCOC(=O)c1ccc(NC(=O)c2cnc3n(c2=O)CCS3)cc1,-7.6%
CCN(CC)c1ccc(NC(=O)CN2C(=O)CC(C)(C)S(=O)(=O)c3ccccc32)c(C)c1,5.0%
N=c1oc2ccccc2cc1C(=O)Nc1ccc(F)cc1,-5.4%
O=C(CSC1=NS(=O)(=O)c2cc(Cl)ccc2N1)NCc1ccc(F)cc1,-16.0%
Cc1coc2c(C)c3oc(=O)c(CCC(=O)N(C)CC(=O)O)c(C)c3cc12,-15.0%
COc1ccc(C(=O)/C=C/C(=O)N(Cc2ccc3c(c2)OCO3)C(C(=O)NC2CCCCC2)c2ccncc2)c(O)c1 (configuration not stated),-8.1%
O=C(COC(=O)c1cc(Cl)ccc1Cl)NCCN1C(=O)CSC1=O,7.5%
Cc1cc(=O)[nH]c(SCC(=O)NC2CCCc3ccccc32)n1 (configuration not stated),-23.4%
Cc1ccc(NC(=O)C(=O)NCc2ccccn2)cc1,2.2%
CN(C)c1ccc(NC(=O)Cn2c(SCc3ccc(F)cc3)nc3cccnc32)cc1,6.0%
O=C1NC[C@H](c2ccccc2)OC(=O)[C@@H](Cc2ccc(F)cc2)CC/C=C/C[C@H]1CC(=O)N(CCO)Cc1ccccc1,1.1%
O=[N+]([O-])c1cc(C(F)(F)F)cc([N+](=O)[O-])c1Sc1n[nH]c(C(F)(F)F)n1,28.2µM*
CCOC(=O)c1cnc(-n2nc(C)cc2C)nc1NNc1ncc(-c2ccccc2)cn1,-1.4%
COc1ccc(Cl)cc1NC(=O)CSc1nc(NS(=O)(=O)c2ccccc2)cc(=O)[nH]1,0.9%
Cc1ccc2c(c1C)NC(=O)C21N2CCCC2C(C(=O)c2ccc3ccccc3c2)C12C(=O)Nc1ccccc12 (configuration not stated),?
COc1cccc(C(=O)N2CCCCC2CCN2CCCCC2)c1 (configuration not stated),10.4%
O[C@@H]1COC(Nc2ccc(N=Nc3ccccc3)cc2)C[C@@H]1O (some centres not stated),-6.0%
CCOC(=O)/C(C#N)=C\c1ccco1,13.1%
O=c1c([N+](=O)[O-])c(N2CCCCCC2)c2ccccc2n1-c1ccccc1,6.7%
CC(=O)NCCNc1nc(-c2ccccc2Cl)nc2ccccc12,8.5%
CCn1c(C)c(C)c2cc(C(=O)NCCN3CCOCC3)ccc21,-9.0%
O=S1(=O)CCN(Cc2csc(-c3cccs3)n2)CC1,5.2%
Cc1cccc(-c2nc3c4ccccc4nc(N4CCN(c5ccccc5F)CC4)n3n2)c1,-2.5%
CC(Oc1cc2oc(=O)c3c(c2cc1Cl)CCCC3)C(=O)NCc1ccccn1 (configuration not stated),-5.6%
CC(C)Cn1c(-c2ccccc2F)n[nH]c1=S,-4.4%
Cc1cccc(NC(=O)CCc2c(C)nc3ncnn3c2C)n1,-4.5%
CCc1nc2sc3c(c2c(=O)n1N)CC(C)(C)OC3,5.1%
CCN=c1scc(C)n1/N=C/c1cc(Br)c(O)c(OC)c1,2.5%
CC(C)CC1NC(=O)N(CC(=O)c2ccc3c(c2)OCCO3)C1=O (configuration not stated),-13.4%
CC1CCc2nc(NC(=O)c3ccc(S(=O)(=O)N4CCCc5ccccc54)cc3)sc2C1 (configuration not stated),-8.6%
O=S(=O)(N/N=C/c1ccc2c(c1)OCCO2)c1ccccc1,-3.3%
CCOC(Cn1c(CCCO)nc2ccccc21)OCC,2.5%
O=C(CCCc1c[nH]c2ccccc12)Nc1ncccc1O,8.8%
FC(F)(F)c1cnc(NNC(=S)Nc2ccc(Cl)cc2)c(Cl)c1,-18.6%
COc1ccc(N2CCN(C(CNS(=O)(=O)c3ccccc3)c3ccccc3)CC2)cc1 (configuration not stated),2.5%

# Part of the list above in another layout.
Molecule	VDR inh
CC1CCc2nc(NC(=O)c3ccc(S(=O)(=O)N4CCCc5ccccc54)cc3)sc2C1 (configuration not stated)	-8.6%
O=S(=O)(N/N=C/c1ccc2c(c1)OCCO2)c1ccccc1	-3.3%
CCOC(Cn1c(CCCO)nc2ccccc21)OCC	2.5%
O=C(CCCc1c[nH]c2ccccc12)Nc1ncccc1O	8.8%

# (listing goes on)
SMILES,VDR inh
CCN(CCCNC(=O)c1nn(-c2ccc(OC)cc2)c(=O)c2c1c1ccccc1n2C)c1cccc(C)c1,-7.6%
CCc1ccc(NC(=O)C(C)OC(=O)C2CCN(c3ccc(C(F)(F)F)cn3)CC2)cc1 (configuration not stated),-1.3%
O=C(CCNC(=O)N1CCn2c1nc1ccccc12)NCc1ccc(F)cc1,-13.1%
CN(C)C(=O)c1ccccc1Sc1cc(Cl)ccc1Cl,-22.2%
COc1cccc(CNS(=O)(=O)c2c(C)nc3scc(C)n3c2=O)c1,-20.4%&-12.5%
OC(CNCc1ccccc1Cl)C(F)(F)F (configuration not stated),22.9%
CN(Cc1cnn(C)c1)Cc1nc(C(c2ccccc2)c2ccccc2)no1,3.8%
N[C@@H](Cc1cc(I)c(Oc2ccc(O)cc2)c(I)c1)C(=O)O,8.7%
O=C(CN1CCN(c2ccc(F)cc2)CC1)N1N=CCC1c1ccccc1 (configuration not stated),8.6%
O=C(c1cc(C2CC2)nn1-c1ccccc1)N1CCN(Cc2ccc(Cl)cc2)CC1,-6.8%
O=C1CC(c2cccc(F)c2)c2c(c3ccccc3[nH]c2=O)O1 (configuration not stated),-4.1%
CN(C(=O)COC(=O)C1CCN(S(=O)(=O)c2cccs2)CC1)c1ccccc1,-3.4%
COc1ccc(CCNC(=O)COc2ccc(S(=O)(=O)N3CCOCC3)cc2)cc1OC,5.1%
COc1ccc(-c2nn(-c3ccccc3)cc2/C=N/Nc2ccc3ccccc3n2)cc1OC,-8.6%
Cc1cccc(C(=O)Oc2ccc(/C=N/O)cc2)c1,9.0%
Cc1ccc(S(=O)(=O)N2CCN(Cc3cc4c(cc3Br)OCCO4)CC2)cc1,17.4%
Cc1cc(=O)oc2cc(NC(=O)C(CCCN=C(N)N)NC(=O)OCc3ccccc3)ccc12 (configuration not stated),7.1%
Cc1cccc(Cn2cc(/C=C/[N+](=O)[O-])c3ccccc32)c1,?
Cc1ccc(S(=O)(=O)NC(C(=O)OCC(=O)NC(=O)c2cccn2C)C(C)C)cc1 (configuration not stated),-12.0%
Cn1nnnc1SCc1ccc(C(=O)Nc2nccs2)cc1,10.1%
COc1ccc(C(=O)N/N=C/c2c(CO)cnc(C)c2O)cc1,5.0%
O=C(Nc1ccccc1C(=O)NCc1cccnc1)c1ccccc1F,12.7%
O=[N+]([O-])c1ccc(-c2nc(=S)c3c(o2)CCCC3)cc1,?
CCc1cc2c(=O)c(-c3cnn(-c4ccccc4)c3)c(C(F)(F)F)oc2c(CN(C)C)c1O,-2.1%
CCN(CC)C(=O)Cn1cc(S(=O)(=O)CC(=O)N2CCCCCC2)c2ccccc21,?
N#C/C(=C\c1ccccc1[N+](=O)[O-])C(=O)Nc1ccc(S(N)(=O)=O)cc1,-24.8%
O=C(O)c1cc(NC(=O)c2ccc(Br)cc2)cc(NC(=O)c2ccc(Br)cc2)c1,-4.9%
CCOc1cccc2c1OC1(C)CC2NC(=O)N1c1cccc(F)c1 (configuration not stated),12.2%
COc1ccc(NS(=O)(=O)c2ccc(OC)c(NC(=O)CCC3CCCC3)c2)cc1,11.5%
Cc1cc(F)ccc1S(=O)(=O)N1CCCOC1CNC(=O)C(=O)NCc1ccc2c(c1)OCO2 (configuration not stated),-2.9%
Cc1cc(C)n2nc(SCC(=O)c3ccc[nH]3)nc2n1,2.4%
CCCCN(C(=O)CN1C(=O)C2CC=CCC2C1=O)c1c(N)n(CCC)c(=O)[nH]c1=O (configuration not stated),0.5%
CCn1nnc(NC(=O)COc2ccc([N+](=O)[O-])cc2)n1,-3.7%
CCSc1nc2ccccc2n1Cc1cccc([N+](=O)[O-])c1,-18.6%
CC(C)OC(=O)c1c(NC(=O)c2cccs2)sc2c1CCCC2,-3.3%
CCN(c1ccccc1)S(=O)(=O)c1cc([N+](=O)[O-])ccc1N,4.1%
O=c1cc(-c2ccccc2Cl)oc2c(NS(=O)(=O)c3cc(Cl)cc(Cl)c3O)ccc(O)c12,31.6µM*
COc1cccc(-c2nnc(SCC(=O)Nc3cc(C)on3)o2)c1,0.6%
Cc1cc(Nc2cc(Cl)ccc2C)n2nc(Cc3ccccc3)nc2n1,0.6%
O=C(COn1nnc2ccc(S(=O)(=O)N3CCOCC3)cc21)NCCc1ccccc1,-5.9%
Cc1ccc(S(=O)(=O)NCC(=O)N/N=C/c2ccccc2O)cc1,15.6%
N#CCCN/N=C(/Cc1nc2ccccc2[nH]1)c1cccc(Cl)c1,3.8%
Cc1ccccc1-c1cc(=O)c2c(O)cccc2o1,-3.1%
CCc1c(C)sc(NC(=O)c2ccc(Br)o2)c1C(=O)OC,6.4%
COc1ccc(-c2c(-c3ccccc3)n(C)c3ccccc23)cc1,-7.0%
COCCCn1c(-c2ccc(S(=O)(=O)N3CCOCC3)cc2)csc1=Nc1ccccc1,-3.5%&-19.3%
Cc1cccc(NC(=O)c2ccc3snnc3c2)c1,9.0%
COCc1ccc(C(=O)N2CCCC(C(=O)c3cc(F)ccc3F)C2)s1 (configuration not stated),5.8%
Cc1cc(NC(=O)C2CCC(CNS(=O)(=O)c3ccc(Br)s3)CC2)ccc1Br (configuration not stated),-18.0%
COc1ccc(NC(=O)c2ccc(NC(=O)COC(=O)c3cnc(C)cn3)cc2)cc1,4.2%
Cc1noc(/C=C/c2ccccn2)c1[N+](=O)[O-],-2.8%
CCCNS(=O)(=O)c1ccc(NC(=O)c2cccnc2)cc1,2.9%
Cc1cc(C)n2nc(CNC(=O)c3ccc(Cl)cc3)nc2n1,11.3%
CC(=O)Nc1ccc(S(=O)(=O)NC2=NCN(c3cccc([N+](=O)[O-])c3)CN2)cc1,22.6%
COc1ccc(-c2c(NC(=O)c3ccco3)oc3c(C)cccc3c2=O)cc1OC,-0.1%
O=C(Oc1c(Cl)cc(Cl)c2cccnc12)c1ccco1,-11.8%
Cc1cc(=O)oc2cc(OCC(=O)OCC(=O)NC3CC3)ccc12,4.2%
O=C(NCc1ccccc1)C(c1ccc(Cl)cc1)N(C(=O)c1csnn1)C1CC1 (configuration not stated),-0.5%
CC(=O)N/C(=N\c1nc(C)cc(C)n1)Nc1ccc2ccccc2c1,-8.7%
Nc1nnc(Cc2ccc(Cl)c(Cl)c2)s1,-6.3%

# Look-ups from above.
# Result of `Cc1noc(/C=C/c2ccccn2)c1[N+](=O)[O-]` in VDR inh: -2.8%
# Result of `COc1ccc(NC(=O)c2ccc(NC(=O)COC(=O)c3cnc(C)cn3)cc2)cc1` in VDR inh: 4.2%

# Further records.
SMILES,VDR inh
Cc1ccccc1NC(=O)N1CCN(C/C=C/c2ccccc2)CC1,-11.3%
COC(C(=O)Nc1ccnn1C1CCN(Cc2ccccn2)CC1)c1ccccc1 (configuration not stated),-6.4%
CCN1/C(=C/c2sc(-c3ccccc3C)c[n+]2C)Sc2ccccc21,-10.8%
CCCCc1nc2ccccc2n1Cc1nnc2n1-c1ccccc1SC2,-3.8%
CCOc1ccc(C)cc1S(=O)(=O)n1cnc2ccccc21,-15.5%
COc1ccc(OC)c(Nc2nc(NCCCN(C)C)nc(N)c2[N+](=O)[O-])c1,-9.1%
Cc1cccc(N2CCN(S(=O)(=O)c3ccc(-c4cnc(C5CC5)o4)cc3)CC2)c1C,16.7%
CCCCCS(=O)(=O)c1oc(-c2cccs2)nc1S(=O)(=O)c1ccc(C)cc1,?
O=C(NCCc1ccccc1)c1c(F)c(F)c(F)c(F)c1F,-2.7%
COc1ccc(-c2noc(N3CCC(C(=O)Nc4ccc(F)cc4F)CC3)n2)cc1,-18.0%
O=C(c1oc(=O)c2ccccc2c1-c1ccccc1)N1CCC(O)CC1,-2.9%
COc1cc(CCC(C)NCc2ccccc2)ccc1O (configuration not stated),4.8%
O=C(O)CN1CCN(Cc2ccccc2F)C1=O,15.7%
Cc1ccc(C(=O)NCC(=O)NCC(c2cccs2)N(C)C)cc1C (configuration not stated),-1.3%
Cc1ccc(C)c(NS(=O)(=O)c2ccc(OCC(=O)NCc3ccco3)cc2)c1,14.2%
O=c1c2ccccc2nc(SCc2ccc([N+](=O)[O-])cc2)n1-c1ccc(Cl)cc1,3.1%
Nc1nonc1-n1nnc(C(=O)N/N=C/c2c(Cl)cccc2Cl)c1CSC1=NCCS1,8.8%
Cc1ccnc(NC(=O)Nc2ccc(Br)cc2Cl)c1,-22.0%
Cc1ccc(NC(=O)NCC2CCN(Cc3cc(C)ccc3Cl)CC2)c(C)c1,-6.6%
COc1ccc(S(=O)(=O)N2CCCC2CNC(=O)C(=O)Nc2cccc(F)c2)cc1 (configuration not stated),-12.9%
Cc1cc(C(=O)NC(C)C2CCCO2)cs1 (configuration not stated),-3.9%
COc1ccc2c(CC(=O)N[C@@H](Cc3ccccc3)C(=O)O)cc(=O)oc2c1C,-5.5%
CCc1ccc(NC(=O)Nc2cn(C)c(=O)c3ccccc23)cc1,-12.5%
Cc1cccc(NC(=O)c2oc3c(c2C)-c2[nH]ncc2CC3)c1C,16.9%

# Printed as active in VDR inh, of those listed so far:
SMILES,VDR inh
O=[N+]([O-])c1cc(C(F)(F)F)cc([N+](=O)[O-])c1Sc1n[nH]c(C(F)(F)F)n1,28.2µM*
O=c1cc(-c2ccccc2Cl)oc2c(NS(=O)(=O)c3cc(Cl)cc(Cl)c3O)ccc(O)c12,31.6µM*

# The main list resumes; the two compounds before the break are reprinted first.
SMILES,VDR inh
CCc1ccc(NC(=O)Nc2cn(C)c(=O)c3ccccc23)cc1,-12.5%
Cc1cccc(NC(=O)c2oc3c(c2C)-c2[nH]ncc2CC3)c1C,16.9%
CCCCN1C=C(C(=O)OCC)C(=O)CC1,-19.8%
CN(C)C(=O)c1ccc(-n2nc(C(F)(F)F)c3c2CCCC3)cc1,3.6%
COc1ccccc1CN1CC(C(=O)NC2CCCCC2)CC1=O (configuration not stated),12.6%
O=C1CC(C(=O)N2CCN(S(=O)(=O)c3cccc(F)c3)CC2)CN1Cc1ccccc1Cl (configuration not stated),-20.3%
